UCH37 DUB inh = inhibitors of human UCH37 deubiquitinase, primary screen, biochemical, Ub-AMC cleavage, fluorescence. Ubiquitin carboxyl-terminal hydrolase isozyme L5 (Homo sapiens), Q9Y5K5. purified proteasome/UCH37. inhibition, % (no concentration beside the values). 330,000 compounds, 0.33% hits. AID 588478, 2011;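 active = mean of two replicates above 20%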;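 also: 0% = compound-free wells with enzyme and 100% = wells lacking proteasome; stock transfer was 100 nL into about 20 µL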
Target sequence (Q9Y5K5 whole entry, looked up): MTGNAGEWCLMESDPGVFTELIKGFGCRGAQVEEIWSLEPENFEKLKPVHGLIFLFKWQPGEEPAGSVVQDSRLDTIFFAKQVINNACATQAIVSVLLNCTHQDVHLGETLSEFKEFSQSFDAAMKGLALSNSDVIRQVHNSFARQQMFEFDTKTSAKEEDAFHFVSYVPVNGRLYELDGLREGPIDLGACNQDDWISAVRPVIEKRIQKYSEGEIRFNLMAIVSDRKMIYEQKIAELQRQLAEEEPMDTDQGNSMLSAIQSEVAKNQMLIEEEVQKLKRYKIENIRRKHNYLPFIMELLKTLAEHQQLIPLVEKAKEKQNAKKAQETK
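Reagent: Ub-AMC substrate; assay system: Proteasome-associated human UCH37 deubiquitinase; controls: no-proteasome and no-compound wells; read-out: % inhibition of Ub-AMC cleavage fluorescence; timing: 30 min preincubation with enzyme, 25 min cleavage at room temperature; signal: AMC fluorescence from Ub-AMC cleavage, excitation 355 nm, emission 460 nm; buffer or medium: Tris-HCl pH 7.4 plus ovalbumin, ATP-MgCl2, DTT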
Calb FLC = C. albicans growth inhibition with fluconazole, primary screen, CaCi-2 strain, Alamar Blue fluorescence | C. albicans CaCi-2 (fluconazole-resistant clinical isolate) + fluconazole, 48 h | growth inhibition, % (test concentration not listed) | 300,000 compounds, 0.57% hits | AID 1979, 2009;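 active = most replicates above 75%; inconclusive = exactly half above 75%; inactive = most below 75%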;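 also: all wells also contain fluconazole at 8 µg/ml as a sub-toxic cotreatment; 0% = median of DMSO wells and 100% = median of geldanamycin control wells; wells of about 8 µL received 7.5 nL stock; the first replicate is given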
B2AR ag = beta2AR agonists driving receptor internalization, primary screen, cell-based, FAP fluorogen, flow cytometry; AID 504454, 2011; response, % (no concentration beside the values); 340,000 compounds, 0.43% hits; Am2.2-beta2AR cells; reference of the scale not given here; Beta-2 adrenergic receptor (Homo sapiens), P07550;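 active = response above a set limit, near 3 SD of response in nonfluorescent compounds, cut at about 42% in these data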;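 also: stock transfer was 100 nL into about 11 µL; a reference agonist was the positive control; negative values mostly stem from fluorescent compounds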
Target sequence (P07550 whole entry, looked up): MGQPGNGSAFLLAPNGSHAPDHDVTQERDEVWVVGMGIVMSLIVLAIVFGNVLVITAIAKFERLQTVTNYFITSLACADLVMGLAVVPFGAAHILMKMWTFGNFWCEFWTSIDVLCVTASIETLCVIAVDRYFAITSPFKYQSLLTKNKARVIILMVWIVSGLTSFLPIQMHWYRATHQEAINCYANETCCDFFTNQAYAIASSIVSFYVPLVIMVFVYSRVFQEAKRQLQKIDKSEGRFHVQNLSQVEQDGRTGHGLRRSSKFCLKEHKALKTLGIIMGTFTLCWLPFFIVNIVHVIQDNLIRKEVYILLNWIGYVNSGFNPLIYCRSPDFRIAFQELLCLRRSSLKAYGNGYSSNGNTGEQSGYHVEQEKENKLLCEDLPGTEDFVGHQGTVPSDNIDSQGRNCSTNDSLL
RanGTP-Impb inh = inhibitors of RanGTP-importin-beta interaction, primary screen, biochemical, FRET, CFP-Ran, YFP-importin-beta, homogeneous. Ran GTPase (GTP-bound) - importin-beta complex. cell-free CFP-Ran/YFP-importin-beta FRET ratio. inhibition, % (test concentration not listed). 300,000 compounds, 1.1% hits;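 active = most replicates above 15%; inconclusive = exactly half above 15%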;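 also: 0% = DMSO wells and 100% = Ran loaded with GDP instead of GTP; wells of about 40 µL received 100 nL stock; the first replicate is given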
T cruzi repl = inhibitors of intracellular T. cruzi growth, primary screen, luminescence, NIH3T3 host cells; inhibition, % (no concentration beside the values); 300,000 compounds, 1.4% hits; T. cruzi beta-gal in NIH3T3, 90 h;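 active = mean inhibition across valid replicates above about 55%, limit read from the data; inconclusive = mean below that limit but half or more replicates reach it; inactive = mean below it, under half of replicates reach it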;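 also: signal also drops with host cell toxicity which is not excluded here; 0% = plate median of DMSO wells and 100% = zero luminescence signal; higher percent means less beta-gal luminescence so fewer parasites; stock transfer was 50 nL into about 50 µL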
Bfl-1 A1 inh = caspase 3/7 activation in MEF A1-2A-BIM cells, primary screen, A1 inhibitor project, cell-based, luminescence, HTS. Caspase-Glo 3/7 luminescence, 3 h; percent of clofoctol response, vehicle zero. caspase activation, % (no concentration beside the values). 330,000 compounds, 0.066% hits. AID 2462, 2010;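 active = over half of replicate activation scores above 10%, or exactly half above 10 with the replicate mean above 10; inconclusive = replicate mean below 10 yet half the replicates above 10; inactive = over half of replicates below 10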;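 also: wells of about 30 µL received 50 nL stock; many hits fall short of the cut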
Beta apoptosis = inhibitors of cytokine-induced beta cell apoptosis, primary screen, luminescence | protection from apoptosis, % (concentration not given with the values) | INS-1E cytokine-induced death, ATP luminescence, 48 h; percent of positive-control rescue, neutral wells zero | 300,000 compounds, 0.8% hits;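 active = all replicates at 75% or more, or half of them and the mean; inconclusive = half reach 75% but not the mean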;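 also: 0% = cytokine-treated negative control wells and 100% = positive control rescue; higher means more ATP so stronger rescue from cytokine killing; wells of about 40 µL received 100 nL stock; the first replicate is given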
LANA-H2A inh = blockers of LANA interaction with H2A/H2B – biochemical, FP readout, HTS, primary screen; cell-free LANA-H2A/H2B peptide, fluorescence polarization; inhibition, % (no concentration beside the values); 320,000 compounds, 0.6% hits; AID 2629, 2010; in the data active = inhibition mostly above about 10%, no sharp cut-off; inactive = mostly below about 6.7%;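 also: stock transfer was 7.5 nL into about 10 µL; 0% = median of vehicle wells and 100% = median of positive control wells; one replicate is shown; the record names a cut of 25% in any replicate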
* marks the source's active call; other numbers are inactive results; ? = inconclusive; nt = no result given.

cpd	structure	UCH37 DUB inh	Calb FLC	B2AR ag	RanGTP-Impb inh
1	CC1CCCCC1NC(=S)Nc1ccc(SC(F)F)cc1 (stereo unspecified)	0.5	1	-2	1.6
2	Cc1cc(C)c(C#N)c(SCc2c(F)cccc2[N+](=O)[O-])n1	6.3	22	-11	-0.3
3	COc1ccc(S(=O)(=O)N2CCCCCC2)cc1Br	3.1	5	-1	1.3
4	CCOC(=O)C1=C(COC(=O)/C=C/c2ccco2)NC(=O)NC1C (stereo unspecified)	3.4	-5	-8	5.4
5	Cc1cc(S(=O)(=O)Nc2ccc(C(=O)NCCCN3CCCC3=O)cc2)ccc1F	2.9	0	-5	3.2
6	Cc1csc(/C(C#N)=N/O)n1	nt	-12	-4	0.6
7	CC(C)NC(=O)NC(=O)COc1c(F)c(F)cc(F)c1F	1.5	9	-2	6.7
8	COC(=O)C1C(O)=C(C=Nc2ccc3ccccc3c2)C(=O)CC1(C)C (stereo unspecified)	-44	-1	6	-5.2
9	O=C(NNc1nc2ccccc2s1)Nc1ccc(Cl)c(Cl)c1	nt	-5	2	7.4
10	CC1CCCN(C(=O)Cn2nnc(-c3ccc(F)cc3)n2)C1 (stereo unspecified)	1.9	-6	-3	-0.8
11	CC1Cc2ccccc2N1C(=O)CSc1ccccc1 (stereo unspecified)	0.1	-12	6	1.2
12	COc1ccc(-c2c(C(=O)O)nc3ccccc3c2C(=O)O)cc1	4.7	-2	-7	?
13	Cc1ccc(CN(C)C(=O)CN2C(=O)NC3(CCCc4ccccc43)C2=O)c(C)c1 (stereo unspecified)	0.4	nt	1	nt
14	CC(NCC(O)COc1ccc(Br)cc1)c1ccccc1 (stereo unspecified)	6.6	-12	42	7.1
15	CCN(CC)CCCN(Cc1cc2ccc(C)c(C)c2[nH]c1=O)C(=O)NC1CCCCC1	-4.0	-1	-11	2.4

cpd	T cruzi repl	Bfl-1 A1 inh	Beta apoptosis	LANA-H2A inh
1	30	-0.5	10	4.7
2	25	0.4	3	0.3
3	4	nt	nt	nt
4	-9	1.0	-12	-2.0
5	-10	0.8	nt	-5.4
6	12	-0.9	-6	-2.0
7	-6	-0.2	-6	-1.1
8	-7	0.8	-4	-1.2
9	11	1.1	-10	1.1
10	-3	2.3	-19	0.3
11	0	0.7	2	-2.5
12	-13	-1.2	4	9.1
13	nt	0.8	6	-2.9
14	38	-2.3	1	-1.6
15	14	-1.3	-14	4.9

Following part.
cpd	structure	UCH37 DUB inh	Calb FLC	B2AR ag	RanGTP-Impb inh
16	COc1ccccc1/C(O)=C(\C#N)c1nc2ccccc2[nH]1	-70	14	-17	3.3
17	Cc1cc(OCc2cc(C(=O)N(C)C3CCOC3)no2)cc(C)c1Cl (stereo unspecified)	5.4	-25	-8	-3.1
18	COc1ccc(N(CC(=O)Nc2c(C)n(C)n(-c3ccccc3)c2=O)S(=O)(=O)c2ccc(C)cc2)cc1OC	1.0	23	7	0.5
19	Cc1ccc(S(=O)(=O)N2CCCCC2)cc1NS(=O)(=O)c1cccc(C(=O)O)c1	0.6	13	16	-2.5
20	COc1ccc(C2=NO[C@@H]3[C@@H]4C[C@@H]([C@H]5C(=O)N(C)C(=O)[C@@H]45)[C@H]23)cc1	-2.1	6	-6	-1.1
21	Cc1ccc(CNC(=O)C(C)OC(=O)c2ccco2)cc1 (stereo unspecified)	1.3	18	-4	?
22	CCOc1ccc(C2c3[nH]c4ccccc4c3C[C@H]3C(=O)N(C4CC4)CC(=O)N23)cc1OC (stereo partly specified)	3.3	2	-14	1.0
23	O=C(CCN1C(=O)c2ccccc2S1(=O)=O)N1CCN(c2ccc(F)cc2)CC1	1.8	-5	-3	4.8
24	O=C(OCC(=O)c1ccc(Cl)cc1Cl)c1ccccn1	-3.0	nt	4	nt
25	CCN(C(=O)COC(=O)c1ccccc1NCCO)C1CCS(=O)(=O)C1 (stereo unspecified)	-476	-8	-5	-0.3
26	C=C(C)CNC(=S)N/N=C\c1ccc2c(c1)OCO2	nt	-4	-3	3.2
27	COc1ccc(C(=O)OCc2cc(=O)n3c(C)csc3n2)cc1F	-4.4	nt	8	nt
28	O=C(C1CCN(S(=O)(=O)c2ccc(Cl)cc2)CC1)N1CCC1	3.2	-1	-5	nt
29	CCC(C(=O)NCCc1ccccc1OC)n1nc(C)c2c(C)n(-c3ccccc3)nc2c1=O (stereo unspecified)	-1.3	-9	-2	-3.9
30	CCOC(=O)/C=C1\SCC(=O)N1CC(=O)c1ccc[nH]1	0.2	-17	-3	21*

cpd	T cruzi repl	Bfl-1 A1 inh	Beta apoptosis	LANA-H2A inh
16	-8	-0.3	-2	-1.9
17	3	-2.9	-9	-0.5
18	-22	0.3	-7	-1.4
19	-8	1.2	-4	-3.9
20	-5	0.7	-9	-0.9
21	-4	-0.9	-6	1.4
22	-2	-0.6	-4	2.9
23	16	0.3	6	2.6
24	nt	-0.6	-3	-0.9
25	-15	-0.1	1	0.1
26	-13	-0.9	1	-3.1
27	nt	-3.6	-7	3.0
28	-6	-0.8	1	0.9
29	9	-1.6	-5	-6.8
30	-8	-0.4	5	3.0

More compounds.
cpd	structure	UCH37 DUB inh	Calb FLC	B2AR ag	RanGTP-Impb inh
31	Cc1c(C(=O)OCC(=O)N(CCC#N)c2ccccc2)oc2c1ccc1ccccc12	-13	-1	9	3.8
32	Cc1cc(OCC(=O)Nc2cc(-c3nn4c(C)nnc4s3)ccc2C)ccc1Cl	2.5	nt	79*	nt
33	Nc1cc2c(cc1[N+](=O)[O-])OCO2	3.4	3	-3	6.7
34	Cc1nn(-c2ccccc2)cc1C(c1c(N)[nH]c(=S)[nH]c1=O)c1c(N)[nH]c(=S)[nH]c1=O	nt	19	-3	-0.8
35	O=C(Cc1cccs1)N1CCN=C1SCc1ccc(Br)cc1	3.1	-5	-12	1.2
36	CN(C(=O)COC(=O)c1cnc(Cl)c(Cl)c1)C1CCCCC1	1.2	nt	23	nt
37	CCOc1ccc(NC2=NCC(=O)N2CCc2ccccc2)cc1	1.6	4	2	-0.7
38	CCCC(c1nnnn1Cc1ccco1)N1CCN(c2ccccc2)CC1 (stereo unspecified)	4.7	5	2	0.5
39	COc1ccc(NC(=O)CCC2CCCCC2)cc1S(=O)(=O)N1CCCCC1	6.3	10	10	0.2
40	CCCCn1c(-c2ccncc2)nc2c1c(=O)[nH]c(=O)n2CC(C)C	2.6	1	-7	3.0
41	COc1ccccc1CNC(=O)c1ccc(N2CCOCC2)c([N+](=O)[O-])c1	3.8	28	-5	0.7
42	CCN(CC)c1ccc(/C=N/N=C(c2ccccc2)c2ccccc2)c(O)c1	nt	-2	4	-2.2
43	Cc1c(CCC(=O)N[C@@H](C)C(=O)O)c(=O)oc2cc3oc4c(c3cc12)CCCC4	-56	-8	10	-0.4
44	O=C(Nc1nnc(CCN2CCCCC2)s1)c1cccc(Cl)c1	4.5	19	-5	-0.5
45	O=C1CCCN1CCCNc1ncnc2c1cnn2-c1ccc(Cl)cc1	7.1	-4	-3	0.8

cpd	T cruzi repl	Bfl-1 A1 inh	Beta apoptosis	LANA-H2A inh
31	-1	-0.3	15	1.0
32	nt	0.8	3	-1.5
33	8	-1.4	-6	2.1
34	-2	-0.9	-12	-2.3
35	22	0.0	-8	-7.4
36	nt	0.7	-10	-3.3
37	-2	0.7	-4	-2.0
38	-7	0.3	-4	0.7
39	-7	0.0	-4	-0.1
40	25	0.8	-1	1.1
41	-2	0.6	6	-4.1
42	28	1.6	13	1.6
43	15	-0.3	2	-1.8
44	0	0.3	-2	4.0
45	1	-2.4	nt	-4.7

Fetched one by one from the entries so far:
cpd	structure	UCH37 DUB inh	Calb FLC	B2AR ag	RanGTP-Impb inh
38	CCCC(c1nnnn1Cc1ccco1)N1CCN(c2ccccc2)CC1 (stereo unspecified)	4.7	5	2	0.5
45	O=C1CCCN1CCCNc1ncnc2c1cnn2-c1ccc(Cl)cc1	7.1	-4	-3	0.8
44	O=C(Nc1nnc(CCN2CCCCC2)s1)c1cccc(Cl)c1	4.5	19	-5	-0.5

cpd	T cruzi repl	Bfl-1 A1 inh	Beta apoptosis	LANA-H2A inh
38	-7	0.3	-4	0.7
45	1	-2.4	nt	-4.7
44	0	0.3	-2	4.0

Going on with the list:
cpd	structure	UCH37 DUB inh	Calb FLC	B2AR ag	RanGTP-Impb inh
46	O=C(Nc1ccc(N2CCOCC2)cc1N1CCOCC1)c1ccc([N+](=O)[O-])cc1	-2.2	7	8	0.8
47	COc1ccccc1OC(C)C(=O)Nc1ccc2c(c1)n(C)c(=O)n2C (stereo unspecified)	-2.1	20	5	0.3
48	CC(=O)c1sccc1NC(=O)c1ccccc1C(=O)O	nt	3	-6	-1.6
49	COc1ccc(OC)c(NC(=O)NC2CCCCCCC2)c1	1.7	-18	1	nt
50	COc1ccc(C(=O)c2ccc(N3CCOCC3)c([N+](=O)[O-])c2)cc1	9.7	10	-9	-3.7
51	Cc1noc(C)c1NC(=O)Nc1cccc2c1O[C@H](CN(C)S(=O)(=O)c1cccs1)[C@@H](C)CN([C@H](C)CO)C2=O	13	nt	5	nt
52	Cc1cc(NC(=O)COc2coc(CN3CCN(c4ccccc4)CC3)cc2=O)no1	-0.1	9	7	5.3
53	CCOC(=O)Cn1c(=N)n(Cc2ccccc2)c2ccccc21	1.6	6	0	-1.6
54	O=C(CN1CCCC1)Nc1ccccc1Sc1ccccc1	2.4	-2	1	-0.5
55	COc1ccccc1OCCCCN1CCC(C)CC1	-1.2	5	-7	1.8
56	COc1ccc(-c2ccccc2)cc1NC(=O)c1ccncc1	4.3	-1	-12	-2.7
57	COC(=O)C(CCSC)NC(=O)c1cn(-c2ccc(OC)cc2)c(=O)c2ccccc12 (stereo unspecified)	1.7	-5	4	-1.5
58	COc1ccc(-c2noc(CCCC(=O)NCc3ccco3)n2)cc1OC	2.4	-5	-1	-4.1

cpd	T cruzi repl	Bfl-1 A1 inh	Beta apoptosis	LANA-H2A inh
46	13	0.5	0	4.4
47	12	0.2	-2	3.8
48	nt	0.2	-6	-2.3
49	nt	-0.2	3	-3.2
50	-1	0.9	nt	2.5
51	nt	0.6	-4	7.2
52	1	0.0	nt	-1.2
53	-1	0.8	5	-0.4
54	6	1.3	-7	-1.2
55	8	-0.4	-3	-0.5
56	-11	-0.4	nt	-1.6
57	-6	0.0	0	-3.2
58	-2	0.5	-3	4.3

Screening data from PubChem BioAssay.
